Screening results (PubChem BioAssay)
KCNQ2 block = KCNQ2 potassium channel inhibitors, primary screen, cell-based, CHO-K1, FluxOR thallium flux, B-score (AID 2156). 20 min; hits give low values; only compounds with negative scores are shown here; some inactives read as strong as hits. B-score at 10 µM. hit rate 1.1% among 310,000;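 active = fluorescence ratio B-score at most minus 3 library SDs, with starting brightness B-score within 2 library SDs, cut at about -5.5 in these data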
Target sequence (O88943 whole entry, looked up): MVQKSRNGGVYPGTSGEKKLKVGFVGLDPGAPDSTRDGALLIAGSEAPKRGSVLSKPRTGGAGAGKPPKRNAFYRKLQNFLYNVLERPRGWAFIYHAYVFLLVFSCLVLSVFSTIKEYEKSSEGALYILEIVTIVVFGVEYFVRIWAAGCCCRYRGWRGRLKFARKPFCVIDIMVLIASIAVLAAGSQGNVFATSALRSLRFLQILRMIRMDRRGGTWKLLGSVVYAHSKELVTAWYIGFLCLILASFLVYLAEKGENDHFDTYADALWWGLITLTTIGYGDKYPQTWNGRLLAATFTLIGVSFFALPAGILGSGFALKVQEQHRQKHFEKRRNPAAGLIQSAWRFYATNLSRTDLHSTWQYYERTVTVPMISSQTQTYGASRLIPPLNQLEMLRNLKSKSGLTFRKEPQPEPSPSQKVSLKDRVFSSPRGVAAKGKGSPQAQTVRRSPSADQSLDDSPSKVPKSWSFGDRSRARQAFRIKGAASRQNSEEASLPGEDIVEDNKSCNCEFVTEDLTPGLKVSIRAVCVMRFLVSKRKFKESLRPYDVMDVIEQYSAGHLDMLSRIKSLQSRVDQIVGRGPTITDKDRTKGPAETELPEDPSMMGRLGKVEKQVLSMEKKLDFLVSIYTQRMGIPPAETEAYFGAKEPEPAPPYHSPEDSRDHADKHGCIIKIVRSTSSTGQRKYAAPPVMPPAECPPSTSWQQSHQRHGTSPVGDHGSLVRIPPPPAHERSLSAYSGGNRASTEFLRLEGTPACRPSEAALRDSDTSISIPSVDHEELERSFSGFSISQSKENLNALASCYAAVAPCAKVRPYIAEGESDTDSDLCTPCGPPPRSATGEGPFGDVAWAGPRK
KCNQ2 block baseline = further read-out of KCNQ2 block, marked with its call; B-score; measured here: initial fluorescence intensity artifact check;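 brightness before thallium and not channel activity; 0 = typical well and far values either way flag optical interference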
* = called active by the depositor; i = inactive. Not all compounds are listed. The share of hits here may be higher or lower than overall.

Start of the listing, in advance (3 entries):
SMILES	KCNQ2 block	KCNQ2 block baseline
Cc1ccc2nc(-c3ccccc3)cc(C(=O)N(C)CC(=O)Nc3ccccc3Br)c2c1	-8.1*	-1.6*
CC1CN(Cc2ccccc2)c2ccccc2NC1=S (stereo unspecified)	i	-0.04
CCOc1ccc2c(c1)[N+](C)(C)C(C)(C)C=C2C	i	3

The listing, from the first entry:
SMILES	KCNQ2 block	KCNQ2 block baseline
Cc1ccc2nc(-c3ccccc3)cc(C(=O)N(C)CC(=O)Nc3ccccc3Br)c2c1	-8.1*	-1.6*
CC1CN(Cc2ccccc2)c2ccccc2NC1=S (stereo unspecified)	i	-0.04
CCOc1ccc2c(c1)[N+](C)(C)C(C)(C)C=C2C	i	3
CCCN1CC(=O)N2C(c3ccccc3)c3[nH]c4ccccc4c3C[C@H]2C1=O (stereo partly specified)	i	0.41
CCOCCCNC(=O)CN1C(=O)NC(Cc2c[nH]c3ccccc23)C1=O (stereo unspecified)	i	-0.28
Cc1cccc(-c2noc(CNC(=O)c3ccoc3C)n2)c1	i	-0.06
c1cc2c3c(cccc3c1)NC1(CCCCCC1)N2	i	-0.42
Cc1cc[n+]2n1CC(O)C2 (stereo unspecified)	i	-0.73
O=C(Nc1ncccc1O)c1ccc(Cl)c(S(=O)(=O)N2CCCCCC2)c1	i	0.87
CN(Cc1cccc(-n2cccn2)c1)Cc1cn(C)nc1-c1ccccc1F	i	0.01
COc1ccc(-c2nc(CS(=O)(=O)CC(=O)NCc3cccc(F)c3)c(C)o2)cc1	i	1.8
Cc1cc(-c2nn(-c3ccccc3F)cc2CNCCc2cnc[nH]2)c(C)s1	i	1.6
Cc1cc(C)cc(NC(=S)N=Nc2c(O)n(C)c3ccc(S(=O)(=O)N4CCOCC4)cc23)c1	i	0.96
Cc1cc(N2C(=O)C(O)=C(C(=O)c3cc4ccccc4o3)C2c2cccc(Cl)c2)no1 (stereo unspecified)	i	1.3
O=C(N/N=C1\CCCc2ccccc21)C(O)c1ccccc1 (stereo unspecified)	i	0.03
Cc1ccc(C)c(OCc2nc3ccccc3[nH]2)c1	i	-0.03
COc1ccc(N2CCN(C(CNC(=O)c3ccco3)c3cccnc3)CC2)cc1 (stereo unspecified)	i	0.16
COc1ccc(-n2c(Cc3cccn3C)nnc2SCC(=O)Nc2ccc(F)cc2F)cc1	i	2
C=CCCC(=O)Nc1nc(C)c(-c2csc(Nc3cc(Cl)ccc3OC)n2)s1	i	2.3
Cc1nn(C(C)c2n[nH]c(=S)n2-c2cccc(Cl)c2)c(C)c1[N+](=O)[O-] (stereo unspecified)	i	1.5
CN(C(=O)CCNC(=O)N1CC(=O)Nc2ccccc21)C1CCCCC1	i	-0.69
Cc1nc(CN2CCN(Cc3nc(C(c4ccccc4)c4ccccc4)no3)CC2)cs1	i	-1.4
O=C1Nc2ccc(Br)cc2C12NNc1ccccc1O2 (stereo unspecified)	i	-0.18
O=C(C1=C[C@H](c2csc3ccccc23)C[C@H](OCCCCO)O1)N1CCOCC1	i	1
Cc1ccc(C(=O)NC(=S)Nc2ccc3[nH]c(=O)[nH]c3c2)c(C)c1	i	-0.32

The final three entries of the section before come first, to join the parts:
SMILES	KCNQ2 block	KCNQ2 block baseline
O=C1Nc2ccc(Br)cc2C12NNc1ccccc1O2 (stereo unspecified)	i	-0.18
O=C(C1=C[C@H](c2csc3ccccc23)C[C@H](OCCCCO)O1)N1CCOCC1	i	1
Cc1ccc(C(=O)NC(=S)Nc2ccc3[nH]c(=O)[nH]c3c2)c(C)c1	i	-0.32
COc1ccc(/C=C/C(=O)OCC(=O)Nc2ccc3[nH]c(=O)[nH]c3c2)cc1OC	i	-0.71
CS(=O)(=O)c1ccccc1C(=O)N(CCC1=CCCCC1)c1c(N)n(Cc2ccccc2)c(=O)[nH]c1=O	i	-0.21
CCC(=O)NC(NC(=S)Nc1cccc2cccnc12)C(Cl)(Cl)Cl (stereo unspecified)	i	0.54
CCC(=O)N1CCN(c2ccccc2NC(=O)COc2ccccc2Cl)CC1	i	-1.9
NC(=O)c1ccc(NC(=O)CSc2nnc(-c3ccncc3)n2Cc2ccco2)cc1	i	0.53
O=C(CN1C(=O)c2ccccc2S1(=O)=O)Nc1ccccc1	i	0.04
COc1ccccc1-n1c(=S)[nH]c2c(sc(=S)n2-c2ccc(C)cc2C)c1=O	i	0.03
C=CCc1cc(/C=C2/NC(=S)NC2=O)cc(OC)c1O	i	-0.73
O=C1NC(SCCCF)=N/C1=C/c1ccc(-n2cncn2)cc1	i	-1.5
Cc1ccc(Nc2ccc([N+](=O)[O-])ccc2=O)cc1	i	-0.11
Cc1cc(C)c(NC(=O)CN2C(=O)NC3(CCCc4ccccc43)C2=O)c(Cl)c1 (stereo unspecified)	i	-1
Cn1c(=O)c2c(O)cc(=O)[nH]c2n(-c2ccccc2)c1=O	i	0.15
O=C(CCc1nnc(Cc2ccc(-c3ccccc3)cc2)o1)NCCc1ccccn1	i	-0.68
O=C(NC(NCC1CCCO1)C(Cl)(Cl)Cl)c1cccc2ccccc12 (stereo unspecified)	-8.6*	2*
Cc1ccc(S(=O)(=O)N2CCN(C(=O)N(c3ccccc3)c3ccccc3)CC2)cc1	i	-0.76
CCOc1ccccc1/C=N/NC(=O)Cc1csc(Nc2cccc(C(F)(F)F)c2)n1	i	-0.9
CCn1c(O)c(N=NC(=O)C(O)c2ccccc2)c2ccccc21 (stereo unspecified)	i	0.23
CCOC(=O)C1CCN(C(=O)c2ccc(OCC(=O)N3CCOCC3)c(OC)c2)CC1	i	2.3
O=C(NCc1ccccc1Cl)c1ccc[nH]1	i	-0.04
O=C1NC2(CCN(Cc3ccccc3)CC2)Oc2ccccc21	i	-2.6
C/C(N)=C(/C#N)C(=O)COC(=O)c1cc(-c2cccc3ccccc23)nc2ccccc12	i	-0.05
CCOC(=O)c1ccc(NC(=O)C(=O)NCc2ccco2)cc1	i	-0.21
COc1ccc(C2=NN(C(N)=S)C(c3ccccc3)C2)cc1 (stereo unspecified)	i	-1.7
CCCCCc1ccc(-c2nnc(N)s2)cc1	i	-0.4
Nc1ccc(N2CCCCC2)c(S(=O)(=O)Nc2ccc(Cl)cc2)c1	i	-0.03
SMILES	KCNQ2 block	KCNQ2 block baseline
Cc1ccccc1OCCn1c(=O)sc2ccccc21	i	3.7
Cc1nnc(SCc2ccc(CC(=O)O)cc2)o1	i	-2.2
CCc1ccc(S(=O)(=O)N/N=C\c2cn(CC(N)=O)c3ccccc23)cc1	i	-0.19
COC(=O)c1c(NC(=O)c2ccccc2)sc2c1CC(C)(C)NC2(C)C	i	-2.1
Cc1c(Cl)c([N+](=O)[O-])nn1CC(=O)NCc1ccc(Cl)cc1	i	0.95
O=C(COc1ccccc1/C=C1\SC(=O)NC1=O)Nc1ccc(F)cc1	i	-0.44
C#CCOc1c(Cl)cc(/C=C2/C(=O)ON=C2C)cc1OCC	i	0.94
Fc1ccccc1N1CCN(Cc2cccnc2)CC1	i	1.5
O=C1C(c2ccc(F)cc2)N(Cc2ccc3c(c2)OCO3)C(=O)CN1C1CCCCC1 (stereo unspecified)	i	-1.3
Cc1c(NC(=O)C(C)OC(=O)Cc2ccc(F)cc2)c(=O)n(-c2ccccc2)n1C (stereo unspecified)	i	0.01
O=C(CCC1N=C2c3ccccc3N=C(SCc3cccc(Cl)c3)N2C1=O)NCc1ccco1 (stereo unspecified)	i	-0.14
CC(=O)Nc1ccc(NC(=O)C(=O)N/N=C/c2cccnc2)cc1	i	-0.77
Cc1ccccc1NC(=S)NC(=O)CCc1ccccc1	i	0.69
CCOc1ccc(Cl)cc1S(=O)(=O)N1CCC(C(=O)NCc2ccco2)CC1	i	-0.04
Cc1cc(N/N=C/c2ccc(O)cc2)nc(NS(=O)(=O)c2ccccc2)n1	i	0.04
CCOc1ccc(/C=N/NC(=O)CN2CCSCC2)cc1	i	0.01
O=C(N/N=C/c1cc([N+](=O)[O-])ccc1O)C1C2CCCCC21 (stereo unspecified)	i	-1.1
Cc1ccc2nc(NC(=O)CNS(=O)(=O)c3ccc(Br)s3)sc2c1	i	-0.36
O=C(Nc1cccc(-c2cn3cccnc3n2)c1)c1ccc2c(c1)OCO2	i	-0.65
Cc1ccccc1NC(=O)N1c2ccccc2CC1C (stereo unspecified)	i	-0.94
CC1CCC(NC(=O)CCNS(=O)(=O)c2ccc3c(c2)CCC(=O)N3)CC1 (stereo unspecified)	i	-0.71
CCCCSc1nnc2n(CCc3ccccc3)c(=O)c3c4c(sc3n12)COC(C)(C)C4	i	0.4
CCOCCCNC(=O)C(NC(=O)c1ccccc1O)c1ccc(C)cc1 (stereo unspecified)	i	1
CNC(=O)c1cccc(NC(=O)C(C)c2ccc3cc(OC)ccc3c2)c1 (stereo unspecified)	i	-0.16
COC(=O)CCC(=O)OC1(C)C(=O)C2=CN(C3CCCC3)C(c3ccc(OC)cc3)=CC2=C(Br)C1=O (stereo unspecified)	i	-0.16

Three entries from above, as comma-separated lines:
canonical_smiles,KCNQ2 block,KCNQ2 block baseline
Cc1ccccc1NC(=S)NC(=O)CCc1ccccc1,i,0.69
O=C(CCC1N=C2c3ccccc3N=C(SCc3cccc(Cl)c3)N2C1=O)NCc1ccco1 (stereo unspecified),i,-0.14
Cc1cc(N/N=C/c2ccc(O)cc2)nc(NS(=O)(=O)c2ccccc2)n1,i,0.04

The listing picks up with the three entries that preceded the break.
SMILES	KCNQ2 block	KCNQ2 block baseline
CCOCCCNC(=O)C(NC(=O)c1ccccc1O)c1ccc(C)cc1 (stereo unspecified)	i	1
CNC(=O)c1cccc(NC(=O)C(C)c2ccc3cc(OC)ccc3c2)c1 (stereo unspecified)	i	-0.16
COC(=O)CCC(=O)OC1(C)C(=O)C2=CN(C3CCCC3)C(c3ccc(OC)cc3)=CC2=C(Br)C1=O (stereo unspecified)	i	-0.16
O=C1CN(C(=O)COC(=O)CCSc2ccccc2Cl)c2ccccc2N1	i	-0.91
Cc1cc(C)c(CN2CCC(n3nccc3NC(=O)CCOc3ccccc3)CC2)cc1C	i	-0.09
CC(NC(=O)COC(=O)C1CCN(S(=O)(=O)c2ccccc2C(F)(F)F)CC1)c1ccccc1 (stereo unspecified)	i	1.5
O=C(CSCc1ccccc1)Nc1cccc(F)c1	i	1.1
CNc1ccc2c3c(cccc13)C(=O)N(C)C2=O	i	80
Cc1c(C)n(-c2ccc(Cl)cc2)c2ncnc(N)c12	i	-0.19
COc1ccc(N(CC(=O)NCc2ccco2)C(=O)CCC(=O)Nc2nccs2)c(OC)c1	i	-2.7
O=C(CCc1ccccc1)OCC(=O)c1ccc(Br)cc1	i	0.55
COc1ccccc1N1CCN(C(=O)/C=C/c2ccc3c(c2)OCO3)CC1	i	-1.5
Cc1ccc(NC(=O)CN2C(=O)NC3(CCc4ccccc43)C2=O)cc1S(=O)(=O)N1CCCCC1 (stereo unspecified)	i	-0.05
Cc1cc(Nc2ccc3c(c2)OCCO3)c2cc(Cl)ccc2n1	i	-1.4
C=CCOC(=O)COc1ccc2c(C)c(C)c(=O)oc2c1C	i	-0.88
O=C(O)c1ccc(CNCc2ccccc2Cl)cc1	i	0.89
CC(=O)Nc1cccc([N+](=O)[O-])c1	i	0.37
Cc1ccc(-n2ncc3c(NCCCN4CCOCC4)ncnc32)c(C)c1	i	1.5
CCOc1ccc(CCNC(=O)c2cc3c(C)nccc3[nH]c2=O)cc1OCC	i	-0.23
Cn1c(=O)oc2cc(S(=O)(=O)CCC(=O)Nc3ccccc3)ccc21	i	1.8
O=C(c1ccc2c(c1)OCO2)C1CCCN(Cc2ccc3nsnc3c2)C1 (stereo unspecified)	i	-0.24
C=CCNC(=O)c1onc(CSc2cc(C)cc(C)c2)c1C(=O)O	i	0.55
CCCCC(C(=O)NC1CCCC1)N(C(=O)c1snc(C(N)=O)c1N)c1ccc(F)cc1 (stereo unspecified)	i	0.98
O=S(=O)(NCc1csc(-c2cccs2)n1)c1ccccc1	i	-0.45
Cc1ccc(Oc2ncccc2/C=N/OCc2ccc(Cl)cc2Cl)cc1	i	0.5
O=C(CCc1nc2ccccc2c(=O)[nH]1)NNC(=O)COc1ccc(Br)cc1	i	1.1
COc1ccc(Br)cc1/C=N/N1CCN(Cc2ccccc2Cl)CC1	i	-0.54
CCOC(=O)Cc1cnc(NC(=O)CSc2nc3ncnc(N)c3[nH]2)s1	i	1.4
SMILES	KCNQ2 block	KCNQ2 block baseline
Cc1nn(-c2nnc(NC3CCCCC3)nn2)c(C)c1Br	i	0.39
CCCCCCCCCOC(=O)C1N2C(=O)[C@@H](NC(=O)COc3ccccc3)[C@H]2SC1(C)C (stereo partly specified)	i	0.52
COc1ccc(CCNC(=O)c2coc3ccccc3c2=O)cc1OC	i	-0.78
COC(=O)c1cc(-c2ccccc2)sc1N	i	0.33
Cc1cccc(C)c1OCC(O)CN1CCN(c2ccccn2)CC1 (stereo unspecified)	i	1.1
COc1ccc(C2CC(c3ccccc3)=NN2C(=O)CSc2ncn[nH]2)cc1 (stereo unspecified)	i	0.06
Oc1ccc(/C=N/n2c(-c3ccccc3)n[nH]c2=S)cc1Br	i	-0.12
COc1ccccc1OCC(=O)NCc1cccs1	i	1.4
CC(C)C(NC(=O)C1CCCCC1)C(=O)NC1=NCCS1 (stereo unspecified)	i	-0.75
COc1ccccc1NC(=O)C(=O)NCCCN1CCCC1=O	i	-0.02
COc1ccc(C(=O)Oc2ccc3c(C)cc(=O)oc3c2C(C)=O)cc1	i	2.1
O=C1CN(c2nc(-c3ccccc3)c3ccccc3n2)c2ccccc2N1	i	2.3
COCCN(C(=O)C1CC1)c1nnc(-c2cccc(C)c2)s1	i	-1.6
COc1ccc(CC(=O)N(Cc2ccccc2)c2ccc(C)cc2)cc1S(=O)(=O)N1CCOCC1	i	0.32
Cn1cccc1C(=O)OCC(=O)NC1CCS(=O)(=O)C1 (stereo unspecified)	i	0.75
CCOc1ccc(NC2=C(OC)C(=O)c3ccccc3C2=O)cc1	i	0.38
CC1(C)CC(=O)C/C(=N/NC(=O)COc2ccc(Cl)cc2Cl)C1	i	0.15
CCOC(=O)C(=O)N1CCC(C(=O)OCC)CC1	i	0.52
CCS(=O)(=O)N1CCC(C(=O)Oc2ccc(C(=O)OC)cc2)CC1	i	-1.1
